AID923 – qHTS Assay for Allosteric/Competitive Inhibitors of Caspase-1: Spectroscopic Profiling in AFC Spectral Region; compound fluorescence, AFC spectral region (405/520 nm); almost no hit is shown here; 75,000 compounds, 1.1% hits; Potency, µM (top dose mostly 57.5 µM), inactives show at the highest dose fluorescence increase, actives largely listed as activators; active = well fitted activation curve with a large enough effect; inconclusive = small, poorly fitted or top-dose-only effect;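 also: potency is read from the fitted curve at half-maximal effect; 0% is about no effect; scaled to a free AFC standard on each plate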
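Compound autofluorescence profiled at 405 nm ex/520 nm em during kinetic caspase 1 run (50 nM enzyme, 5 uM Ac-WEHD-AFC, HEPES pH 7.5, 10 mM DTT). Titration up to 57 uM; baseline from regression intercept, normalized to AFC standard curve.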
A647 autofl – compound autofluorescence in A647 spectral region; Compound fluorescence, A647 channel (570/671 nm), Tris buffer; max dye-equivalent concentration, M; 59,000 tested, under 10 active; active means above 1 µM dye equivalent; inconclusive means 0.1 to 1 µM; inactive means 0.1 µM or less;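 also: values scaled relative to a standard on each plate; highest value over a series up to 38 µM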
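Spectral profiling of library compounds in pH 8.0 Tris: 15 min room-temperature incubation, single ex/em pair (570/671 nm), response normalized to Alexa 647 equivalents.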
A488 fluor – compound fluoresces in the A488 spectral region; compound autofluorescence, A488 spectral region, dye equivalency; hits give high values; max dye equivalency, M; 59,000 compounds, 0.1% hits; AID 591; active = above 10 nM dye equivalent; inconclusive = 1 to 10 nM; inactive = 1 nM or less; about half of its hits are not listed in these tables;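 also: highest value over a series up to 38 µM; compound alone in buffer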
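Autofluorescence read at ex 480/em 540 nm after 15 min RT in 100 mM Tris pH 8.0; compound signal normalized to A488 standard series on each plate, reported as dye-equivalent concentration at each test concentration.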
Resorufin autofl – resorufin region autofluorescence. Compound fluorescence, resorufin region 547/598 nm, buffer; hits give high values. max dye-equivalent concentration, M. 59,000 compounds, 0.04% hits; active = above 10 nM dye equivalent; inconclusive = 1 to 10 nM; inactive = 1 nM or less; a few of its hits are not listed in these tables; also: highest value over a series up to 38 µM
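Tris 100 mM pH 8.0; compound added, 15 min RT; CCD imager read, ex 547 nm/em 598 nm; signal normalized to resorufin standard curve (six concentrations per plate) as dye-equivalent concentration.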
TSHR agonist – agonists of human thyroid stimulating hormone receptor | Potency, µM (series often up to 57.1 µM), for inactives: at the highest dose activation, hits mostly activators | P16473 | 73,000 compounds, 0.48% hits | AID 926 | HEK293-CNG-TSHR cells (CNG channel as cAMP sensor), membrane potential dye, cAMP; active = well fitted activation curve of enough size with the parental cells flat; inconclusive = any curve in the parental cells; inactive = parental cells flat and receptor cells flat or falling; also: potency is read from the fitted curve at half-maximal effect; % of control where 0% means no effect; weak receptor curves with flat parental cells got no call and are not listed
Target sequence (P16473 whole entry, looked up): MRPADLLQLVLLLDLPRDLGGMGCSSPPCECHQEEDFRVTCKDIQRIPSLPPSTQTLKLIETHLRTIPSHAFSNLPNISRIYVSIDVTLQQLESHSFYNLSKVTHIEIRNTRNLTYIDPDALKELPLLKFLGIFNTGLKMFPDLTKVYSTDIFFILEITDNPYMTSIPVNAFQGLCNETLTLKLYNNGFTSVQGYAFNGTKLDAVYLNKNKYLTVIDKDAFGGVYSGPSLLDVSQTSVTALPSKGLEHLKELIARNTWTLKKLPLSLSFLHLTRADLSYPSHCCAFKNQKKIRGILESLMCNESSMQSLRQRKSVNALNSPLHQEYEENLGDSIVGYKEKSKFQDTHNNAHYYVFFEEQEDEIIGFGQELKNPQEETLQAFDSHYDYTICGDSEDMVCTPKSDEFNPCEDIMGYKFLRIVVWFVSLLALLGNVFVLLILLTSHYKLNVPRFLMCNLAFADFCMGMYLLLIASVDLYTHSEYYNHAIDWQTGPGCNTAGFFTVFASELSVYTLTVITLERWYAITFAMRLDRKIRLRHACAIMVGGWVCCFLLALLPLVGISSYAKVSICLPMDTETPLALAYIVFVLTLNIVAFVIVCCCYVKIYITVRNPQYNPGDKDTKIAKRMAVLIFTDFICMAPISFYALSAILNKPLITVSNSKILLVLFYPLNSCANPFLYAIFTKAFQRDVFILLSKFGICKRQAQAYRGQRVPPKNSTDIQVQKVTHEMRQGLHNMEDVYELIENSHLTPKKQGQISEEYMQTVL
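HEK 293 cells stably expressing TSHR and a cAMP-gated CNG channel; parental CNG-only cells as counterscreen. Cells preloaded 60 min with membrane potential dye plus 100 uM RO 20-1724, then compound 30 min; fluorescence read at 590 nm.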
The depositor's hits bear a star; i = inactive; ? = inconclusive; nt = no result given; [ ] = dose if it differs, or a comment.

SMILES	AID923	A647 autofl	A488 fluor	Resorufin autofl	TSHR agonist
O=S(=O)(c1ccc2c(c1)OCCO2)N1CCC(n2nnc3cc(C(F)(F)F)ccc32)CC1	1.0%	4.3e-09	i	i	18%
N#Cc1ccc(CN2CCC3(CCNCC3)CC2)cc1	-1.1%	2.4e-09	i	i	-4%
COc1ccc(CNC(=O)CCc2nc(-c3ccccc3F)no2)c(OC)c1	-1.4%	3.3e-08	i	i	17%
CCn1c(SCC(=O)Nc2cc(C)c(Cl)cc2OC)nnc1-c1ccco1	0.0%	1e-09	i	i	17%
Clc1ccccc1-c1nc(-c2cccnc2)no1	0.5%	1e-09	i	i	8%
O=C(Nc1nc2ccccc2[nH]1)C1CCCO1 (stereo not drawn)	-2.5%	nt	nt	nt	-11%
Cc1cc(C(=O)Cn2nnc(-c3ccc(Cl)cc3)n2)c(C)n1CC1CCCO1 (stereo not drawn)	-0.7%	2.5e-08	i	i	?
Cn1c2c(c(=O)n(C)c1=O)CN(Cc1ccco1)CN2	1.3%	nt	nt	nt	4%
O=C(NCc1ccccc1F)C1CCCN1C(=O)NCc1ccccc1 (stereo not drawn)	1.1%	1.8e-08	i	i	0%
O=C1NC(=S)SC1=C1CCCCCC1	-2.1%	1e-09	i	i	-4%
COc1cccc(-c2cc(C(=O)N3CCN(Cc4ccccc4)CC3)no2)c1	-0.3%	4e-09	i	i	3%
CC1(C(=O)NCc2cccnc2)CCC(=O)N1CCc1ccccc1 (stereo not drawn)	0.5%	nt	nt	nt	-7%
Cc1ccc(OCc2ccc(C(=O)N3CCOCC3)cc2)cc1C	-1.3%	1.3e-08	i	i	27%
Cc1ccc(C(C)n2cc(C(=O)NCc3ccncc3)nn2)cc1 (stereo not drawn)	1.0%	1.6e-08	i	i	0%
CCOCC(=O)Nc1c(C(=O)OCC)oc2ccccc12	-2.5%	4.5e-09	i	i	?
CCCCC(CC)CNC(=O)CCS(=O)(=O)c1cccc2nsnc12 (stereo not drawn)	1.0%	1.1e-09	i	i	-7%
CC1CCN(Cc2ccc(NC(=O)CC3Oc4ccccc4NC3=O)cc2)CC1 (stereo not drawn)	-1.6%	nt	nt	nt	5%
Cc1ccc(NC(=O)c2cnc3scc(C)n3c2=O)c(C)c1	-0.5%	nt	nt	nt	1%
COc1ccc(C(=O)C2CCN(S(=O)(=O)c3ccc4c(c3)OCCO4)CC2)cc1	7.6%	1e-09	i	i	?
Nc1ccn(-c2ccccc2)c(=O)c1	0.7%	2.7e-09	i	i	0%
Cc1cc(C)c2nc(N3CCCC(C(=O)N4CCC(C(N)=O)CC4)C3)sc2c1 (stereo not drawn)	0.1%	3.3e-08	i	i	29%
CC(Oc1ccccc1)C(=O)OCC(=O)NC(=O)NCc1ccco1 (stereo not drawn)	3.1%	3.7e-08	i	i	2%
CCCCCC/C(=N/O)c1ccccn1	-2.4%	5.4e-08	i	i	11%
CC(C)NC(=O)c1ccccc1NC(=O)CCS(=O)(=O)Cc1ccccc1	-0.6%	2.6e-08	i	i	1%
Nc1nc(NC(=O)c2cccnc2)nn1-c1ccccc1	-0.4%	1.5e-09	i	i	0%
The results go on:
SMILES	AID923	A647 autofl	A488 fluor	Resorufin autofl	TSHR agonist
CCOc1cc(CN2CCOCC2)cc(C(C)=O)c1	nt	4.4e-08	i	i	nt
CC(C)(C)n1nc2c(c1NC(=O)c1ccc(Br)o1)CS(=O)C2 (stereo not drawn)	2.7%	1.7e-08	i	i	2%
Cc1ccc(Nc2nc(N)nc(CN3CCN(Cc4ccc5c(c4)OCO5)CC3)n2)cc1Cl	1.0%	6.4e-09	i	i	6%
Cc1ccc(-n2c(N)c(-c3nc4ccccc4n3C)sc2=S)cc1	4.3%	2.7e-08	i	i	-29%
COc1ccc(C2C/C(=N\O)C(C)(C)O2)cc1 (stereo not drawn)	0.9%	nt	nt	nt	6%
Cc1ccc(SCC(=O)NCCN2C(=O)CSC2=O)c(C)c1	0.2%	4.6e-09	i	i	-4%
Cc1ccccc1-c1cncnc1Nc1ccccc1	2.0%	1e-09	i	i	nt
COC(=O)CNC(=O)CCCCC(=O)NCC(=O)OC	1.2%	6.8e-09	i	i	0%
Cc1cc2c(cc1C)-c1nnnn1C(C)(C)C2	0.6%	3.3e-08	i	i	?
CN(Cc1ccccc1)c1nc2c(c(=O)[nH]c(=O)n2C)n1Cc1ccccc1	-0.6%	2.5e-08	i	i	6%
CCOc1ccc2c(O)csc2c1	0.7%	1.2e-08	i	i	6%
C=CCOC(=O)Nc1c(C(=O)OC)[nH]c2ccc(Cl)cc12	1.5%	1e-09	i	i	-4%
COc1ccc(-c2cc(C(=O)N/N=C/c3ccc(OC)c(OC)c3)[nH]n2)cc1	5.3%	nt	nt	nt	-1%
CC1(C)CC(=O)c2cc(OCC(=O)NCCCN3CCN(c4ccccc4F)CC3)ccc2O1	8.8%	1.3e-09	i	i	?
Cc1cc(OCCSc2nnc(-c3cccs3)n2C)ccc1Cl	-1.9%	2.7e-08	i	i	-6%
COc1ccc(OC)c(N2C(=O)CC(Cc3ccc(C)cc3)C2=O)c1 (stereo not drawn)	1.0%	1e-09	i	i	-11%
CS(=O)(=O)N1CCC2(CCN(Cc3ccncc3)CC2)CC1	0.7%	2.6e-08	i	i	4%
CCC1CCCCN1C1Sc2ccc(C(=O)OC)cc2NC1=O (stereo not drawn)	-0.3%	3.7e-08	i	i	?
O=C1COc2ccc(C(=O)CSc3nnc(Cc4cccs4)n3-c3ccccc3)cc2N1	0.7%	2.1e-08	i	i	?
COc1ccc(C2C(C#N)=C(N)Oc3n[nH]c(C)c32)cc1CSc1ccccn1 (stereo not drawn)	nt	3.1e-09	i	i	nt
COCCn1nnnc1C(c1ccccc1OC)N1CCN(c2ccccc2F)CC1 (stereo not drawn)	0.2%	2.1e-08	i	i	?
Cc1ccc(O)c(NC(=O)c2cccc(S(=O)(=O)N3CCCCC3)c2)c1	-1.2%	1e-09	i	i	?
Cc1cc(NC(=O)CNC(=O)C2CCCCC2)no1	-1.2%	nt	nt	nt	0%[11.4 µM]
COc1ccc(S(=O)(=O)Cc2ccc(C(=O)NCc3ccco3)o2)cc1	1.4%	nt	nt	nt	8%
CC(=O)n1c2ccccc2c2c1c1ccccc1n2C	3.3%	nt	nt	nt	-23%

Whole records as entered above:
Results for `COc1ccc(C2C/C(=N\O)C(C)(C)O2)cc1` (stereo not drawn) : AID923 = 0.9%; A647 autofl = nt; A488 fluor = nt; Resorufin autofl = nt; TSHR agonist = 6%
Results for `COc1ccc(C2C(C#N)=C(N)Oc3n[nH]c(C)c32)cc1CSc1ccccn1` (stereo not drawn) : AID923 = nt; A647 autofl = 3.1e-09; A488 fluor = i; Resorufin autofl = i; TSHR agonist = nt

(continued)
SMILES	AID923	A647 autofl	A488 fluor	Resorufin autofl	TSHR agonist
CCC(c1nnc(SCC(=O)N2CC3(C)CC2CC(C)(C)C3)o1)N(C)C (stereo not drawn)	0.1%	3.4e-08	i	i	0%
CSc1nc(Oc2ccc(=O)[nH]n2)nc(N(C)C)n1	nt	6.1e-08	i	i	nt
CN(C(=O)c1ccncc1)c1nnc(-c2cccnc2)s1	-0.4%	1e-09	i	i	?
Nc1nonc1-n1nnc(C(=O)O)c1-c1cccs1	2.4%	1e-09	i	i	11%
COc1ccc(-c2cc(C(F)(F)F)n3nc(C(=O)Nc4cc(C)on4)cc3n2)cc1OC	0.4%	3.8e-08	i	i	-1%
Cc1nc2ccccn2c1P(=Nc1ccccc1)(N(C)C)N(C)C	0.7%	1e-09	i	i	0%
CCN(CC)C(=O)COc1ccc(Br)cc1Cl	0.0%	1e-09	i	i	35%
O=C(NCCCCN1CCCC1)c1ccc(-n2c(=O)c(=O)[nH]c3ccccc32)cc1	4.3%	nt	nt	nt	-1%
O=C(O)c1cc(Cl)cc(Cl)c1	-0.6%	nt	nt	nt	13%
Cc1ccc(S(=O)(=O)NCC2CCC(C(=O)NCCCN3CCOCC3)CC2)cc1 (stereo not drawn)	-1.4%	2.8e-08	i	i	-3%
Cc1nnc(NC(=O)CCSc2ccccc2)s1	-0.7%	1e-09	i	i	7%
Cc1ccc(S(=O)(=O)NCC(c2cccnc2)N(C)C)cc1 (stereo not drawn)	0.0%	1.4e-08	i	i	6%
O=C(C1CCN(S(=O)(=O)N2CCOCC2)CC1)N1CCN(Cc2ccc3c(c2)OCO3)CC1	-0.4%	2.2e-08	i	i	-2%
O=C(NC1CCCCCCC1)C1CCC(CNc2c(N3CCCC3)c(=O)c2=O)CC1 (stereo not drawn)	-3.4%	nt	nt	nt	10%
CCCn1c(O)c(CN2CCCCC2)c(C)c(C#N)c1=O	3.9%	1.4e-09	i	i	?
Cc1onc(-c2ccccc2)c1C(=O)N1CCCN(C(=O)c2c(-c3ccccc3)noc2C)CC1	0.6%	1e-09	i	i	22%
COc1ccc(CNc2ccnc(-c3cccnc3)n2)c(OC)c1	0.8%	2.7e-09	i	i	?
COCc1nnc(NS(=O)(=O)c2ccc(Br)cc2)s1	-3.4%	8.5e-09	i	i	3%
CCCCc1c(O)n2c(nc3ccccc32)[nH]c1=O	0.7%	5.2e-09	i	i	-3%
COC(=O)C1C(=O)CC(C)(O)C(C(=O)OC)C1c1ccc2c(c1)OCO2 (stereo not drawn)	-0.8%	nt	nt	nt	3%
CCCOc1ccc(C2c3c(oc4cc(C)c(C)cc4c3=O)C(=O)N2CCCN2CCOCC2)cc1 (stereo not drawn)	3.3%	nt	nt	nt	11%
Cc1cc(C(F)(F)F)nc(SCC(=O)Nc2ccccc2)n1	-0.4%	1e-09	i	i	4%
O=C(CN1CCN(S(=O)(=O)c2cc(Cl)ccc2Cl)CC1)Nc1ccc2c(c1)OCCO2	0.6%	1e-09	i	i	nt
Cc1cc(NC(=O)c2cc(C)on2)no1	-0.3%	2.9e-08	i	i	0%
O=C(O)c1ccc(CN(c2ccccn2)S(=O)(=O)c2ccccc2)cc1	0.8%	nt	nt	nt	0%

A few values from the list:
`O=C(CN1CCN(S(=O)(=O)c2cc(Cl)ccc2Cl)CC1)Nc1ccc2c(c1)OCCO2` | A647 autofl: 1e-09
`Cc1cc(C(F)(F)F)nc(SCC(=O)Nc2ccccc2)n1` | A647 autofl: 1e-09

Continued:
SMILES	AID923	A647 autofl	A488 fluor	Resorufin autofl	TSHR agonist
Cc1ccc(N2C(N)=C(C#N)C(c3cccnc3)C3=C2CCCC3=O)cc1 (stereo not drawn)	1.3%	1.3e-09	i	i	-4%
Cc1cc(C)nc(NCC(O)CNc2ccccc2Cl)n1 (stereo not drawn)	1.0%	3.1e-09	i	i	17%
CCOC(=O)N1CCC(NC(=O)CCN2C(=O)COc3ccccc32)CC1	-0.5%	1.7e-09	i	i	-5%
O=C(c1ccco1)n1nc(-c2ccc(Cl)cc2)nc1NCc1ccco1	0.5%	3.8e-09	i	i	3%
CC(SCc1ccccc1)C(=O)NC1CCCC1 (stereo not drawn)	-1.4%	2.9e-09	i	i	4%
O=C(Oc1ccc(Cl)c2cccnc12)N1CCOCC1	0.7%	1e-09	i	i	?
CCOC(=O)CCc1nc2ccccc2[nH]c1=O	2.5%	4.4e-08	i	i	-3%
CCOC(=O)Cc1csc(NC(=O)COc2ccc(N(C)S(=O)(=O)c3cccs3)cc2)n1	1.5%	1e-09	i	i	?
O=c1n(-c2cccc(Cl)c2)c(=O)n2n1CCC2	1.6%	1.1e-09	i	i	3%
COc1ccc(CNC(=O)CS(=O)Cc2nc(-c3ccc(C)cc3)oc2C)cc1 (stereo not drawn)	3.6%	nt	nt	nt	12%

Just AID923, for 4 of the compounds above:
smiles | AID923
CC(SCc1ccccc1)C(=O)NC1CCCC1 (stereo not drawn) | -1.4%
O=C(Oc1ccc(Cl)c2cccnc12)N1CCOCC1 | 0.7%
CCOC(=O)CCc1nc2ccccc2[nH]c1=O | 2.5%
CCOC(=O)Cc1csc(NC(=O)COc2ccc(N(C)S(=O)(=O)c3cccs3)cc2)n1 | 1.5%

Only part of the results is shown. The share of hits here may be higher or lower than overall.
